Ecoli rRNA inh: selective bacterial rRNA inhibition in E. coli. E. coli WT GFP vs humanized-ribosome RFP mutants, fluorescence, 24 h; hits give low values; DMSO median 0, no signal -100. GFP signal change (wild-type ribosome), % (test concentration not listed). 350,000 tested, 1.6% active;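 active = significant combined selectivity score with lowered wild-type GFP, culture density cut under 30%, mutant RFP and density less affected; inactive = any of these conditions unmet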; also: one replicate is shown; some compounds called inactive have numbers as strong as hits
Bfl-1 A1 inh: inhibitors of the anti-apoptotic protein A1, read as caspase activation. MEF A1-2A-BIM cells, Caspase-Glo 3/7 luminescence, 3 h; percent of clofoctol response, vehicle zero. caspase activation, % (concentration not given with the values). 330,000 tested, 0.066% active. AID 2462;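 active = over half of replicate activation scores above 10%, or exactly half above 10 with the replicate mean above 10; inconclusive = replicate mean below 10 yet half the replicates above 10; inactive = over half of replicates below 10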;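 also: wells of about 30 µL received 50 nL stock; many hits fall short of the cut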
RanGTP-Imp inh: inhibitors of RanGTP-importin-beta interaction, primary screen, biochemical, FRET, CFP-Ran, YFP-importin-beta, homogeneous | 300,000 tested, 1.1% active | inhibition, % (concentration not given with the values) | cell-free CFP-Ran/YFP-importin-beta FRET ratio | AID 2216;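 active = most replicates above 15%; inconclusive = exactly half above 15%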;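 also: 0% = DMSO wells and 100% = Ran loaded with GDP instead of GTP; wells of about 40 µL received 100 nL stock; the first replicate is given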
Calb FLC: C. albicans growth modulation with fluconazole; 300,000 tested, 0.57% active; growth inhibition, % (test concentration not listed); C. albicans CaCi-2 (fluconazole-resistant clinical isolate) + fluconazole, Alamar Blue growth, 48 h;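 active = most replicates above 75%; inconclusive = exactly half above 75%; inactive = most below 75%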;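 also: all wells also contain fluconazole at 8 µg/ml as a sub-toxic cotreatment; 0% = median of DMSO wells and 100% = median of geldanamycin control wells; wells of about 8 µL received 7.5 nL stock; the first replicate is given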
MLL AF4-AF9 inh: MLL-AF4/AF9 protein interaction inhibition | 350,000 tested, 0.47% active | inhibition, % at 10 µM | AID 651704 | AlphaScreen, biotin-AF4 peptide binding to FLAG-AF9 | P42568;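 active = every replicate reaching a set inhibition limit, whatever the replicate mean, cut at about 25% in these data; inconclusive = mean inhibition reaches that limit but some replicates miss it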;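 also: 0% = plate neutral control median and 100% = total signal loss; the record names both 10 and 1 µM as test concentration; the first replicate is given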
Target sequence (P42568 whole entry, looked up): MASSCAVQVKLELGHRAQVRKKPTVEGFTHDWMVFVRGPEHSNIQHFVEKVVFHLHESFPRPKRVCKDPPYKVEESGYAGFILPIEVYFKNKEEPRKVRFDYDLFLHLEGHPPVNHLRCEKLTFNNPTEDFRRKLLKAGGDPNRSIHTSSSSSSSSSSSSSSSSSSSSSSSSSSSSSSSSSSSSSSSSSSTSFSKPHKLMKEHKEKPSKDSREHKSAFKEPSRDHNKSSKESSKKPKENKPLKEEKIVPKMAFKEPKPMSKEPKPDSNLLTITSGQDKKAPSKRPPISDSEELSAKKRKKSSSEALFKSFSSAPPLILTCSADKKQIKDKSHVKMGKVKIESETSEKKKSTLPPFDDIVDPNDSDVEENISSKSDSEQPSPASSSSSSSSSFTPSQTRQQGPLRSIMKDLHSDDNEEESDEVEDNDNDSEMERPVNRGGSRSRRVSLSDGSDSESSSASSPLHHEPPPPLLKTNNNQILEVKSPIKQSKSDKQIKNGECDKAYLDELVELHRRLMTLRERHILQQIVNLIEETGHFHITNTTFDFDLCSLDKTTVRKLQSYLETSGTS
Beta apoptosis: blocks beta cell apoptosis; 300,000 tested, 0.8% active; INS-1E cytokine-induced death, ATP luminescence, 48 h; percent of positive-control rescue, neutral wells zero; protection from apoptosis, % (test concentration not listed);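 active = all replicates at 75% or more, or half of them and the mean; inconclusive = half reach 75% but not the mean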;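 also: 0% = cytokine-treated negative control wells and 100% = positive control rescue; higher means more ATP so stronger rescue from cytokine killing; wells of about 40 µL received 100 nL stock; the first replicate is given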
T cruzi inh: T. cruzi replication inhibition | 300,000 tested, 1.4% active | inhibition, % (test concentration not listed) | T. cruzi beta-gal in NIH3T3, luminescence, 90 h | AID 1885;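 active = mean inhibition across valid replicates above about 55%, limit read from the data; inconclusive = mean below that limit but half or more replicates reach it; inactive = mean below it, under half of replicates reach it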;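 also: signal also drops with host cell toxicity which is not excluded here; 0% = plate median of DMSO wells and 100% = zero luminescence signal; higher percent means less beta-gal luminescence so fewer parasites; stock transfer was 50 nL into about 50 µL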
Vif TR-FRET: HIV-1 Vif–A3G interaction blockers – biochemical, TR-FRET, GST-Vif 1-94, biotin-A3G peptide, dose response retest, primary screen (AID 1117319) | TR-FRET GST-Vif / biotin-A3G peptide binding; higher % means a stronger effect; test concentration not given here; strong numbers were not always called active | inhibition, %; hits with a dose series show IC50 in µM | 260,000 tested, 0.57% active;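 active = above the screen mean plus three standard deviations and confirmed in dose response; inconclusive = results disagree or hit not tested in dose response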;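 also: Vif residues 1-94 fused to GST binding biotinylated APOBEC3G peptide 110-148; 0% = full assay without inhibitor and 100% = GST in place of GST-Vif; retest series ran down from 100 µM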
Ecoli rRNA inh OD600: second read-out of Ecoli rRNA inh, no call of its own (marks repeat the call); OD600 change, %; measured here: OD600 growth;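 optical density of the mix in the first replicate; 0 = DMSO median and -100 = no signal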
Ecoli rRNA inh RFP: second read-out of Ecoli rRNA inh, no call of its own (marks repeat the call); RFP signal change, %; measured here: RFP humanized mutant strains;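 first replicate; 0 = DMSO median and -100 = no signal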
* hit, by the source's call; u = inconclusive; x = not tested or not shown.

compound	T cruzi inh	Beta apoptosis	Calb FLC	Ecoli rRNA inh RFP	Vif TR-FRET	RanGTP-Imp inh	Ecoli rRNA inh	Bfl-1 A1 inh	Ecoli rRNA inh OD600	MLL AF4-AF9 inh
CC(=O)Nc1cccc(NC(=O)c2ccc(COc3ccccc3)cc2)c1	-4	x	18	4.6	x	-1.7	1	x	-1	0.8
CCOC(=O)C1=C(C)Nc2nc3ccccc3n2C1c1ccc(O)cc1 (stereo not given)	4	-10	-1	4.1	9%	-4.7	9	0.6	10	-6.0
Fc1ccccc1-c1nc2ccccc2[nH]1	-21	6	4	-1.4	-1%	-2.3	3	-8.6	-5	-1.8
COc1ccc(CCNC(=O)C2CCN(S(=O)(=O)c3cc(OC)ccc3OC)CC2)cc1	-2	1	-31	x	0%	0.5	x	-0.5	x	x
Cc1cc2nc(-c3cccnc3SCC(=O)NCc3ccco3)[nH]c2cc1C	-17	32	8	x	28%	-4.2	x	-6.1	x	9.3
O=C1c2ccccc2NC(c2ccc(-c3ccc(Br)cc3)o2)N1O (stereo not given)	21	9	102*	-17	-5%	3.9	-47	-1.6	-61	8.1
O=c1oc(-c2cccs2)nc2ccc(Br)cc12	-9	-2	-4	x	-9%	-0.6	x	-1.3	x	x
COc1cc(C)ccc1OCC(=O)Nc1ccccc1N1CCOCC1	x	0	x	-2.7	-17%	x	-6	1.1	-17	-2.6
CCOc1ccc(Nc2cc(C)nc3nc(C)nn23)cc1	5	-1	6	-3.2	12%	u	-1	5.2*	4	-3.2
O=C(/C=C/c1ccccc1)NCC(=O)N/N=C\c1cccnc1	3	2	21	3.5	x	-3.6	-2	-0.5	1	-1.1
COc1ccc(NC(=O)c2sccc2OS(=O)(=O)N(C)C)cc1	6	-1	10	14	-8%	2.9	-2	0.3	-2	-0.3
CC(=O)Nc1cccc(NC(=O)CSc2nccn2Cc2ccccc2)c1	-2	0	-4	2.4	x	1.8	1	-0.7	-2	1.8
Cn1c(=O)n(C)c2cc(NC(=O)c3ccc(F)cc3)c(Br)cc21	1	-9	-2	0.6	x	0.7	4	0.2	6	2.3
Cc1ccc(NC(=O)c2c(C(=O)Nc3ccccc3)sc3nc(C)cc(=O)n23)cc1	4	1	-1	-2.9	-10%	-2.2	10	0.5	8	-1.0
CN(C)CCCOc1cccc(Cl)c1	13	-11	-16	x	-9%	1.8	x	0.7	x	x
O=C(CN1CCC(n2nnc3cc(C(F)(F)F)ccc32)CC1)NCc1cccs1	5	5	26	x	16%	1.1	x	0.3	x	x
CC1C/C(=C/c2ccccn2)C(=O)/C(=C/c2ccccn2)C1 (stereo not given)	58*	-12	27	x	19%	7.5	x	-0.3	x	x
CN(C)/C=N/c1cc(=O)n(Cc2ccccc2)c(=O)n1C	-12	x	-10	-6.9	32%	9.6	11	0.7	14	0.3
O=C(O)CCn1c(SCCc2ccccc2)nc2ccccc21	-17	-2	-5	x	x	-0.5	x	-0.2	x	1.0
O=C(c1ccc(N2CCCC2=O)cc1)N1CCN(c2ccc(Cl)cc2)CC1	16	-2	18	-2.5	4%	0.1	-5	-0.9	2	-3.0
CCN(CC)c1ccc(S(=O)(=O)N2CCCCC2)cc1NC(=O)C1CSC2(C)CCC(=O)N12 (stereo not given)	x	0	x	6.7	-10%	x	-9	0.0	-8	8.8
CC(C)C[C@H](NC(=O)NC(C)C)C(=O)O	-4	0	2	x	-1%	-4.2	x	0.1	x	-4.2
COc1ccc(N2CCN(C(=O)COC(=O)c3c(-c4ccccc4)noc3C)CC2)cc1	x	1	x	x	-6%	x	x	-1.5	x	5.2
O=C(NNC(=O)C12CC3CC(CC(Cl)(C3)C1)C2)c1csc(N2CCOCC2)n1	-7	2	4	1.7	x	u	3	-0.3	4	-11
Brc1ccc(-c2noc(CCc3ccccc3)n2)cc1	6	-2	-6	x	-4%	-1.4	x	-0.3	x	x
Cc1ccc(S(=O)(=O)N2CCC(C(=O)NCCCn3ccnc3)CC2)cc1	-6	-4	-3	1.6	x	-0.5	12	-0.8	18	1.1
COc1ccc2c(c1)OC[C@H]1[C@H]2N2C(=O)CNC(=O)[C@@]2(C)[C@H]1c1ccccc1	x	-2	x	-0.6	x	x	2	0.2	6	2.7
CC1Cc2ccccc2N1C(=O)c1cnsn1 (stereo not given)	4	-2	-4	x	-3%	-1.7	x	1.0	x	x
Cc1cc([N+](=O)[O-])nn1CCCC(=O)Nc1cc(Oc2ccccc2)cc([N+](=O)[O-])c1	17	12	-1	x	-1%	1.0	x	1.1	x	x
COC(=O)C1C(=O)C2=C(CC1C)Nc1ccccc1NC2c1ccc(C)s1 (stereo not given)	11	-3	-17	0.2	x	2.7	12	-0.2	10	1.8
CCC(=O)Nc1cccc(-c2cnc3ccccc3n2)c1	3	-1	32	-5.5	-1%	3.4	-11	-1.8	-11	x
Cc1ccc(C)c(SCC(=O)OC/C(O)=C(\C#N)c2nc3ccccc3[nH]2)c1	22	x	-6	6.1	-7%	u	14	x	17	1.5
COc1cccc(CNC(=O)CN2C(=O)COc3ccc(S(=O)(=O)N4CCCCC4)cc32)c1	-2	-2	-11	0.6	x	7.1	-4	-0.2	-3	4.5
O=C(NCc1ccco1)/C(=C\C=C\c1ccccc1)NC(=O)c1ccccc1Br	21	-17	-14	x	x	4.1	x	0.4	x	-7.0
O=C(c1ccccc1[N+](=O)[O-])N1CC2C3C=CC(C3)C2C1 (stereo not given)	8	x	3	3.1	x	5.2	13	-0.2	9	-1.7
O=c1c2ccccc2ncn1CCOCCOc1cccc(Br)c1	-12	-4	-14	-7.8	28%	0.5	-10	-0.1	-11	7.3
O=C(Nc1cccc(-c2cnc3ccccc3n2)c1)c1ccccc1	-4	12	0	x	5%	-1.8	x	-0.8	x	x
Cc1cccc(C(CC(=O)O)n2cccc2)c1 (stereo not given)	-8	-2	5	x	27%	-0.5	x	-1.5	x	x
c1cc2c3c(cccc3c1)C(N1CCCCC1)=N2	3	3	6	x	-4%	4.4	x	-0.4	x	x
COc1ccc(S(=O)(=O)N(C)CC(=O)Nc2ccccc2C(F)(F)F)cc1Cl	-8	-1	27	x	4%	6.3	x	1.3	x	x
COc1ccc(N=C(C)c2sc3ccccc3c2O)cc1	1	4	-10	22	1%	39*	6	-4.2	14	-1.2
COc1ccc(-c2cc(=O)c3cc(O)ccc3o2)cc1	5	-2	4	x	x	3.0	x	-0.6	x	-3.6
CCOC(=O)c1ccc(CSc2nnc(C)n2N)o1	-18	-2	9	x	5%	2.1	x	-0.3	x	x
CCS(=O)(=O)N1CCN(C(=O)c2ccccc2)CC1	-13	0	-13	x	2%	-0.5	x	0.0	x	x
C=CCn1c(C)cc(-c2csc(N)n2)c1C	-5	9	6	x	1.2µM*	1.4	x	0.7	x	x
Cc1nc2c(cnn2-c2ccccc2Cl)c(=O)n1-c1ccc(C(C)C)cc1	7	9	-5	x	-6%	-0.8	x	0.6	x	x
CCc1cccc(NC(=O)c2ccc(NS(=O)(=O)c3c(C)noc3C)cc2)c1	-3	2	3	x	3%	1.2	x	1.0	x	x
CC(=O)Nc1ccc(OCC(=O)N(CC(C)C)C2CCS(=O)(=O)C2)cc1 (stereo not given)	7	-4	u	0.3	u	2.2	10	-0.3	14	-2.0
CCN(C(=O)c1cc2c(=O)[nH]c3ccc(C)cc3c2s1)c1cccc(C)c1	56*	10	13	-2.6	x	3.1	3	0.3	0	-19
CCOc1ccc(Oc2ccccc2NS(=O)(=O)c2ccc(CCC(=O)O)cc2)cc1	x	-1	x	-2.7	-2%	x	-11	0.9	-28	0.9
C=CCNC(=O)CCCCCNS(=O)(=O)c1ccc(OC)cc1	-22	-12	-2	x	-5%	0.3	x	1.3	x	x
O=C(NCc1cccs1)C1CCN(S(=O)(=O)c2cccc([N+](=O)[O-])c2)CC1	21	0	u	-1.8	x	1.2	-2	-0.1	4	-1.9
CCCCOc1cccc(C2/C(=C(/O)c3ccc4c(c3)CC(C)O4)C(=O)C(=O)N2CCN2CCOCC2)c1 (stereo not given)	-6	0	40	1.4	-16%	4.2	-5	0.3	-4	1.0
O=C(NC1CCCCC1)c1ccc2snnc2c1	-7	3	3	-2.5	x	1.4	2	-0.1	5	u
Cc1ccsc1C(=O)OCC(=O)N1C(C)CCCC1C (stereo not given)	x	2	x	-1.2	x	x	1	0.1	-3	-0.2
S=C(NCc1ccncc1)Nc1cccc(Cl)c1	-17	-5	-4	x	-12%	-10	x	0.7	x	x
C/C(=N\Nc1nc(C)c(C)s1)c1ccc([N+](=O)[O-])cc1	-6	2	23	0.2	9%	-0.8	30	-0.9	17	12
COc1ccccc1/C=C/C(=O)OCC(=O)Nc1ccc2c(c1)OCO2	x	-15	x	1.4	x	x	-1	0.2	6	0.3
COCCCN(C(=O)c1ccc2ccccc2n1)c1c(N)n(Cc2ccccc2)c(=O)[nH]c1=O	x	-5	x	2.1	-5%	x	18	-0.4	13	-0.8
COCCCn1c2nc3ccccc3nc2c2c(=O)n(Cc3cccs3)cnc21	13	0	-9	x	1%	0.1	x	0.6	x	x

Additional entries.
compound	T cruzi inh	Beta apoptosis	Calb FLC	Ecoli rRNA inh RFP	Vif TR-FRET	RanGTP-Imp inh	Ecoli rRNA inh	Bfl-1 A1 inh	Ecoli rRNA inh OD600	MLL AF4-AF9 inh
CC(C)(C)OC(=O)N1Cc2ccccc2C[C@H]1C(=O)NCC(=O)NC1CCCC1	-7	-3	-2	0.7	x	0.4	3	0.1	4	0.4
O=C(NC1CC2CCCC(C1)N2C(=O)Nc1cccc(F)c1)C1CC1 (stereo not given)	9	-16	-2	-2.2	x	0.8	2	0.0	-3	-5.7
Cc1cc(C)c2c(=O)cc(C(F)(F)F)oc2n1	-30	3	21	0.4	-13%	7.9	14	1.2	2	-0.5
CCC1(C)Cc2c(C#N)c(N)n(N)c(=S)c2CO1 (stereo not given)	15	-7	-2	x	-3%	1.7	x	1.0	x	x
COCCNC(=O)CCC1CCN(Cc2ccc(-c3ccccc3)cc2)CC1	58*	x	-8	-5.0	x	2.8	7	0.2	4	2.0
CCOC(=O)CNC(=O)/C(=C\c1ccc(F)cc1)NC(=O)c1ccccc1	-5	0	-1	-0.8	5%	-0.8	8	0.0	8	-1.2
O=[N+]([O-])c1cc(S(=O)(=O)N2CCCCC2)ccc1NCCN1CCOCC1	14	-3	-5	2.9	7%	-0.1	17	0.0	5	1.6
CS(=O)(=O)c1ccc(Cl)c(NC(=O)CN2C(=O)C3CCCCC3C2=O)c1 (stereo not given)	-8	-10	-7	0.5	4%	-0.5	1	0.7	2	-0.9
CCOC(=O)c1cc(NC(=O)N2CCCc3ccccc32)c(C)nc1C	13	2	5	x	>100µM*	1.0	x	-0.9	x	x
Cn1c(CCN2CCN(c3ccccn3)CC2)nc2cc(NS(=O)(=O)c3ccccc3)ccc21	3	3	4	1.9	-2%	3.7	-2	0.4	-9	-9.5
Cc1ccc(NC(=S)NCc2cccnc2)cc1	-20	-3	-5	-2.9	2%	-1.9	1	1.2	2	x

An excerpt; the hit share may differ from the screen's.
